TRPML1 agonist: activates the human TRPML1 channel; 0.12% of 410,000 active; activation, % (no concentration beside the values); AID 624414; TRPML1-expressing cells, Ca2+ dye fluorescence, FDSS; host cell line not named in the record; reference of the full effect not given here; in the data active = activation above about 50%; inconclusive = about 30% to 50%; inactive = below about 30%; further: 0% is about no effect; the text of the record puts the active cut at 80%
Target sequence (Q9GZU1 whole entry, looked up): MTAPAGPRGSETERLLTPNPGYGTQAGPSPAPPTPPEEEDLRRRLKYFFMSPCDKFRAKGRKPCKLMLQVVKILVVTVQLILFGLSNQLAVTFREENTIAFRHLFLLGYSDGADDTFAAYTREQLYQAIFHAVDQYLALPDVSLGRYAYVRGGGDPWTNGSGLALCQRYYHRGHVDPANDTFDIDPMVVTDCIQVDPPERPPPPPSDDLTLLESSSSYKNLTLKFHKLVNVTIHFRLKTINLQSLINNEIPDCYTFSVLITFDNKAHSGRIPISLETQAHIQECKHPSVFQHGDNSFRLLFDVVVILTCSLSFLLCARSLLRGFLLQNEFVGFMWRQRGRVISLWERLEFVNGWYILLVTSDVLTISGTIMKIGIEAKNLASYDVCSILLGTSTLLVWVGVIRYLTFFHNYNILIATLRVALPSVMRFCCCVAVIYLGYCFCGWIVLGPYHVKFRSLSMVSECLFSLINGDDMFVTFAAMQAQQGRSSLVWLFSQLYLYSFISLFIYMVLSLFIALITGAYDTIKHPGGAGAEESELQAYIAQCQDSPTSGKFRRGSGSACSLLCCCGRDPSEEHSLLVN
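TRPML1-DL cells, Tet-induced overnight (~16 h, 37 degrees C), loaded 45-90 min at room temperature with Ca8 no-wash calcium dye plus quencher. FDSS fluorescence: 10 s baseline, compound pin-transfer, 110 s agonist read, then EC80 54-4 (4uM final) and 110 s antagonist read.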
TRPML1 blocker: human mucolipin-1 channel inhibition; Q9GZU1; TRPML1-inducible cells, Ca2+ dye fluorescence, FDSS; active compounds read low; inhibition of EC80 agonist-evoked calcium signal; activity change, negative = inhibition, % (concentration not given with the values); 0.02% of 390,000 active; AID 624415; in the data active means activity change below about -50%; inconclusive means about -30% to -50%; inactive means above about -30%;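 further: stimulus is agonist 54-4 at its EC80 concentration; on the % scale 0 is the no-effect control and ±100 the full control effect; the text of the record puts the active cut at -80%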
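Tet-induced TRPML1-DL cells loaded with Ca8 no-wash calcium dye were read kinetically on FDSS. Compound addition was followed by EC80 agonist 54-4 (4 uM final); inhibition was read over 110 s.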
ClpP mod: qHTS Assay for Activators of ClpP; Potency, µM (top dose mostly 57.5 µM), without a hit: at the highest dose activity change, negative = active; purified B. subtilis ClpP, FRET peptide cleavage, 20 min; AID 651965, 2013; ATP-dependent Clp protease proteolytic subunit (Bacillus subtilis (strain 168)), P80244; 1.9% of 340,000 active; active = well fitted falling curve with a large enough effect; inconclusive = small, poorly fitted or top-dose-only effect; inactive = no such curve, though single readings can be large or run the other way; further: potency means the concentration at half of the fitted maximal effect; the source files actives as falling curves though it sought activators and does not explain the sign; nearly all actives have a fitted effect of over 65% in size; many hits overshoot -100%
Target sequence (P80244 whole entry, looked up): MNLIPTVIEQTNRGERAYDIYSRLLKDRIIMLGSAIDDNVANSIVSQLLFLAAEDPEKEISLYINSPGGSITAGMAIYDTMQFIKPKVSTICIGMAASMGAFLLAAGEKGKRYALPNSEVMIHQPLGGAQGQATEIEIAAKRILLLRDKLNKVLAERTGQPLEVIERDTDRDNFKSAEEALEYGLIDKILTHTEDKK
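ClpP 10 microg/mL final, pH 8 Tris/KCl buffer with BSA, glycerol, Tween-20; compound pinned in; FRET-FV substrate; RT 20 min; Ex320/Em430; ΔFRET vs ADEP 5.8 microM, DMSO, no enzyme.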
gsp ag: activates gsp, the McCune-Albright syndrome mutation; gsp mutant cells, cAMP HTRF, 30 min; control for the full effect not named in the record; Potency, µM (series often up to 76.9 µM), for the others: at the highest dose activation (cAMP increase), usual class: activators; 0.13% of 340,000 active; active = well fitted activation curve with a large enough effect; inconclusive = small, poorly fitted or top-dose-only effect, or another doubt; inactive = no such curve, though single readings can be large or run the other way; cell line not stated here;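 further: phosphodiesterase inhibitor Ro 20-1724 added with compounds to block cAMP breakdown; potency means the concentration at half of the fitted maximal effect; nearly all actives have a fitted effect of over 60% in size; about a fifth of the inactives were tested at one dose only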
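Cells stably selected in G418 were plated at 2000/well, grown 16-24 hr, then given compounds in DMSO with the PDE inhibitor […] (300 uM solution added) for 30 min at 37C; cAMP was read by HTRF.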
gsp antagonist: antagonists of gsp mutant (McCune-Albright syndrome); 0.4% of 340,000 active; AID 624288; gsp-mutant cells, cAMP HTRF, 30 min; control for the full effect not named in the record; Potency, µM (titrated, usually from 76.9 µM), inactives show at the highest dose activity change, negative = inhibition, most hits filed as inhibitors; active = falling curve of any shape with a large fitted effect; inconclusive = falling curve, mostly with a smaller effect; inactive = flat or rising curve; cell line not stated here;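 further: intracellular cAMP measured with PDE inhibitor Ro 20-1724 present during compound exposure; potency means the concentration at half of the fitted maximal effect; on the % scale 0 is the no-effect control and ±100 the full control effect; nearly all actives have a fitted effect of over 65% in size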
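Cells, 2000/well, grown 16–24 h in DMEM 10% FBS with 0.5 mg/ml G418, then compounds plus […] (300 uM addition stock), 30 min at 37C. cAMP read by HTRF (cAMP-d2 and anti-cAMP antibody-K in lysis buffer) after 30 min RT.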
Menin MLL FP FL: menin-MLL binding inhibition, fluorescein peptide; FP activity change, % at 61.4 µM; Fluorescence polarization, fluorescein-MLL peptide displacement from menin; AID 1766; 290,000 tested, under 10 active; inconclusive = falling polarisation curve, or a change in total fluorescence; inactive = total fluorescence flat and polarisation flat or rising; no compound was filed as active; the % refers to the polarisation; negative = inhibition;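 further: % of control where 0% means no effect; inhibitors lower the polarisation; unlabelled MLL peptide was the positive control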
An asterisk follows results filed as active; ? = inconclusive; · = not tested or not shown; & = joins results of further samples; [ ] = remark or other dose. No enrichment for hits; 2.1% or so of the library scored in one or more.

SMILES	TRPML1 agonist	TRPML1 blocker	ClpP mod	gsp ag	gsp antagonist	Menin MLL FP FL
COc1ccc([C@@H]2C[C@H](c3ccccc3)Oc3cc(C)cc(C)c32)cc1	0.5	-3	0.2%	·	13%	5.8
CC1CCCC(C)N1C(=O)Cn1c(=O)sc2ccccc21 (configuration not stated)	0.3	17	3.6%	-13%	-4%	-1.1
CC(=O)Oc1c(Sc2ccccc2[N+](=O)[O-])c(C)nn1C(C)(C)C	0.0	12	·	1%[15.4 µM]	-22%	0.1
O=C(NCc1cccnc1)c1ccc(CN2CCc3ccccc3C2)cc1	-0.4	0	-0.3%	-2%	-6%	-2.9
NS(=O)(=O)c1ccc(CCNC(=O)CSc2nc3ccccc3c(=O)n2CCN2CCOCC2)cc1	-0.2	2	·	?	-5%	0.2
COC(=O)C1C(=O)C2=C(CC1C)NC(C)=C(C(=O)OCCOc1ccccc1)C2c1ccc(C)o1 (configuration not stated)	0.6	-12	-6.7%	?	?	4.4
CN(C(=O)CSc1cn(CC(=O)N2CCOCC2)c2ccccc12)c1ccccc1	0.2&0.1	-6&1	-0.5%&-0.5%	-45%[inhibitor]	-5%	-4.5
CCOC(=O)N1CCN(C(=O)CNC(=O)c2ccc(Cl)cc2)CC1	-0.2	8	1.1%	-2%[15.4 µM]	10%	·
COCCNC(=O)C(=O)N/N=C/c1ccc(C(=O)OC)cc1	0.1	19	·	-2%[15.4 µM]	-7%	2.4
Cc1oc2ccc(O)cc2c1C(=O)c1ccc([N+](=O)[O-])cc1	0.1	11	-4.9%	11%[15.4 µM]	-16%	0.9
COCCn1c(-c2ccc(OC)cc2)cnc1SCC(=O)Nc1cccc2ccccc12	1.1	-6	-2.3%	-9%	-30%	3.8
CC(O)(Cc1ccccn1)Cc1ccccn1	-0.4	-2	·	7%	11%	·
O=C1C(Cc2ccc3[nH]ccc3c2)NC(=S)N1c1ccccc1 (configuration not stated)	-0.2	-13	·	23%[15.4 µM]	2%	10
CCCCN1C[C@H](c2ccccc2)[C@@H](CC(=O)NC)C1=O	-0.1	-13	0.2%	4%	·	·
CCOC(=O)c1c(NC(=O)COC(=O)c2ccc(Cl)nc2)sc(C)c1C	-0.2	36	-2.1%	-54%[inhibitor]	·	·
O=C(O)c1cc(N/N=C/C(Cl)=C/c2ccccc2)ccc1Cl	-0.5	-7	·	10%[15.4 µM]	-14%	2.7
O=C(Nc1ccc(OC(F)(F)F)cc1)C(NS(=O)(=O)c1cccc2nsnc12)c1ccccc1 (configuration not stated)	0.4	31	0.7%	·	·	·
Cc1cc(=O)n(C)c2ccccc12	0.4	-6	-6.3%	9%	9%	-1.5
COc1ccc(NC(=O)/C(C#N)=C/c2ccc(-c3ccccc3C(=O)O)o2)cc1	0.7	0	·	-54%[inhibitor]	-21%	0.0
CN(C)S(=O)(=O)c1ccc(NC(=O)CSc2nnc(-c3ccco3)o2)cc1	3.2	0	-1.9%	22%	1%	·
CC1CCN(S(=O)(=O)c2ccc3c(ccc(=O)n3CC(=O)NCc3ccccc3Cl)c2)CC1	0.3	-16	-9.6%	·	·	·
CCc1ccc(NC(=O)CCc2ccc(CC)o2)cc1	1.4	-11	·	26%	0%	-2.8
O=C(NCCCO)c1cc2c([nH]c3ccccc32)c(-c2ccccc2)n1	1.2	2	·	22%	-21%	6.9
CC(=O)Oc1ccc([N+](=O)[O-])cc1N1C(=O)c2ccccc2C1=O	0.4	7	3.1%	11%[15.4 µM]	-2%	-1.0
CCOc1cc(CNCc2cccs2)cc(Br)c1OC	1.9	0	-3.0%	-6%	0%	-0.6
COc1ccc(OCCOC(=O)Nc2ccccc2)cc1	1.5	3	1.0%	-8%	-1%	0.3
CCN(CC)S(=O)(=O)c1ccc(/C=C/C(=O)OCC(=O)Nc2cccnc2Cl)cc1	2.3	30	-2.4%	32%	-7%	·
COCCCNC(=S)N1CCC(C(=O)c2ccc(Cl)cc2)CC1	-0.5	-3	-3.5%	-37%[15.4 µM]	-15%	-3.3
CCN1CCN(c2ccc(NC(=O)c3ccc(F)cc3)cc2Cl)CC1	-0.8	24	·	8%[15.4 µM]	9%	6.4
COc1cc(-c2nc3cnccc3n2C)cc(OC)c1OC	-0.4	19	-6.1%	18%	-7%	1.1
C=CCn1c(-c2cnn(-c3ccccc3)c2N)n[nH]c1=S	0.0	30	·	31%[15.4 µM]	5%	6.2
O=C(O)CC(c1ccc(OC2CCCC2)cc1)N1C(=O)c2ccccc2C1=O (configuration not stated)	0.2	-3	-9.5%	12%[15.4 µM]	-15%	6.2
COc1ccc(OC)c(C(=O)NC(CC(N)=O)c2ccc(NCC3CC3)c([N+](=O)[O-])c2)c1 (configuration not stated)	-0.6	-16	?	-11%	0%	1.7
O=C(O)CC1S/C(=N/N=C/c2ccc(-c3ccc(Cl)cc3[N+](=O)[O-])o2)NC1=O (configuration not stated)	-1.2	-2	13%	10%	9%	-0.2
Cn1c(=O)c2c(nc(CN3CCOCC3)n2Cc2ccccc2)n(C)c1=O	-0.3	-10	-2.4%	2%	1%	·
c1ccc(Cn2nnc3c(NCC4CCCO4)ncnc32)cc1 (configuration not stated)	0.3	13	-1.3%	-20%	3%	1.8
CCCc1cc(N2CCCC(C(=O)Nc3cc(Cl)ccc3OC)C2)n2ncnc2n1 (configuration not stated)	2.9	4	0.2%	-38%[inhibitor]	-3%	·
O=C(Cn1cc2c(n1)CCCC2)NCCc1ccccc1	0.0	22	-1.0%	-5%	3%	1.6
Nc1nnc(SCCCOc2ccc(F)cc2)s1	-0.8	4	-0.2%	?	3%	·
O=C(CCN1C(=O)/C(=C\c2cccc(Br)c2)SC1=S)NCCCN1CCOCC1	0.6	-5	·	17%[15.4 µM]	-3%	5.8
CC1=C(C(=O)Nc2cccnc2)C(c2cccc(O)c2)n2nc(SCc3ccccc3)nc2N1 (configuration not stated)	0.1	8	-13%	·	·	·
CS(=O)(=O)N1CCc2cc(C(=O)Nc3ccc(S(N)(=O)=O)cc3)ccc21	-0.4	-7	-3.2%	·	·	·
COc1ccccc1CN1C[C@@H]2C[C@@H](c3cccc(O)c3)N3CCC[C@@]23C1=O	-1.1	-4	-0.3%	23%[15.4 µM]	-21%	8.1
CCn1c(Cc2ccccc2)nnc1SCC(=O)NC(C)(C)C	-0.4	8	-1.1%	16%	2%	2.8
COC(=O)C(CC(C)C)NC(=O)CSc1nc(-c2ccccc2)c(C#N)c(=O)[nH]1 (configuration not stated)	0.5	13	-14%	?	6%	-0.7
O=C(CCS(=O)(=O)c1ccccc1)N1CCN(c2cccc(C(F)(F)F)c2)CC1	0.8	-9	·	5%[15.4 µM]	-13%	·
Cc1cc(C)c(S(=O)(=O)N2CCN(CCO)CC2)c(C)c1	1.1	-23	1.2%	-36%	1%	1.6
Cc1nn(-c2ccccc2)c(Cl)c1/C=N/Nc1nc2ccccc2[nH]1	0.2	3	-0.1%	-49%[inhibitor]	3%	4.5

Individual results from the entries so far.
In TRPML1 blocker, CS(=O)(=O)N1CCc2cc(C(=O)Nc3ccc(S(N)(=O)=O)cc3)ccc21 has -7
In TRPML1 agonist, CC1=C(C(=O)Nc2cccnc2)C(c2cccc(O)c2)n2nc(SCc3ccccc3)nc2N1 (configuration not stated) has 0.1

Further structures follow.
SMILES	TRPML1 agonist	TRPML1 blocker	ClpP mod	gsp ag	gsp antagonist	Menin MLL FP FL
O=c1[nH]c2ccccc2nc1/C=C(\O)C(F)F	1.0	-4	-4.4%	3%	-3%	·
Nc1nc(SCc2ccccc2)[nH]c(=O)c1-c1ccccc1	-0.3	85	-1.4%	-37%	-12%	3.5
O=C(N/N=C/C=C/c1ccccc1)C(O)c1ccccc1 (configuration not stated)	-0.6	-9	0.2%	-2%	3%	·
CN1C[C@@H]2[C@@H]3C(=O)N(C)C(=O)[C@@H]3[C@](C)(C1=O)N2C(=O)c1ccc(Cl)cc1	-0.4	2	1.0%	·	3%	·
Cc1ccc(C)c(N2CCN(CCCNC(=O)c3cnn(-c4ccccc4Cl)c3C3CCN(C(=O)OC(C)(C)C)CC3)CC2)c1	0.1	9	1.6%	·	·	·
CC1=CC2=NC(=O)/C(=C\c3cccn3CCOc3cc(C)cc(C)c3)C(=N)N2O1	2.5	5	1.3%	-14%	-8%	6.7
Cc1ccc(C2CC(=O)C=C(Nc3ccc(Cl)cc3)C2)cc1 (configuration not stated)	-0.6	1	-15%	-1%[15.4 µM]	-2%	-1.8
CCOC(=O)c1c(SCC(=O)Nc2nc3ccccc3s2)nc(=O)[nH]c1C	2.6	5	1.9%	·	·	·
CCN(CC)S(=O)(=O)c1cccc(NC(=O)COc2ncnc3sccc23)c1	0.8	-5	·	25µM*	2%	-1.0
O=C(Cn1cncn1)N/N=C/c1ccc(Cl)cc1	-0.2	-2	-0.2%	-60%[inhibitor]	10%	4.9
CCOC(=O)C1CCC2(CC1)C(C#N)=C(N)Oc1n[nH]c(C)c12 (configuration not stated)	-0.7	2	-7.2%	-6%	-5%	1.9
CCCN1CC(=O)N2C(c3cccc(OC)c3OC)c3[nH]c4ccccc4c3C[C@H]2C1=O (some centres not stated)	15	-7	2.2%	?	4%	-3.4
CCOc1ccc(OCCC(=O)OC(C)C(=O)Nc2ccc(C(C)=O)cc2)cc1 (configuration not stated)	0.2	1	1.2%	?	-17%	-4.7
Cc1ccc(C(C)C)c(OCC(=O)Nc2cccc(NC(=O)c3ccco3)c2)c1	2.1	-16	-12%	·	·	·
CC(=O)NC(Cc1cc(C)ccc1C)C(=O)N1CCN(C(=O)c2ccc(Br)cc2)CC1 (configuration not stated)	0.1	31	·	-13%[15.4 µM]	-9%	-4.8
CCc1cccc(C)c1NC(=S)NCc1ccccc1	1.1	8	-1.4%	-18%[15.4 µM]	-6%	-3.0
CC(=O)Nc1ccc(NC(=S)Nc2ccccc2)cc1	-0.2	-9	-26%	-4%	9%	-0.2
N#Cc1c(NC(=O)C2CCCO2)sc2c1CCCCCC2 (configuration not stated)	2.0	2	-3.0%	-5%	1%	·
O=C(CN1CCOc2ccccc21)NCc1ccc(F)cc1	0.0	16	0.7%	-68%[inhibitor]	3%	-1.0
CC(=O)Nc1sc2c(c1C(c1cccs1)N1CCOCC1)CCCC2 (configuration not stated)	-0.2	-5	-3.1%	-48%[inhibitor]	1%	5.5

Screens from PubChem.
